Menin MLL FP FL – menin-MLL binding inhibition, fluorescein peptide; Fluorescence polarization, fluorescein-MLL peptide displacement from menin; FP activity change, % at 61.4 µM; 290,000 tested, under 10 active; AID 1766; inconclusive = falling polarisation curve, or a change in total fluorescence; inactive = total fluorescence flat and polarisation flat or rising; no compound was filed as active; the % refers to the polarisation; negative = inhibition;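 note: % of control where 0% means no effect; inhibitors lower the polarisation; unlabelled MLL peptide was the positive control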
ClpP mod – qHTS Assay for Activators of ClpP | purified B. subtilis ClpP, FRET peptide cleavage, 20 min | Potency, µM (titrated, usually from 57.5 µM), without a hit: top-dose activity change, negative = active | AID 651965, 2013 | actives 1.9% (n = 340,000) | ATP-dependent Clp protease proteolytic subunit (Bacillus subtilis (strain 168)), P80244; active = well fitted falling curve with a large enough effect; inconclusive = small, poorly fitted or top-dose-only effect; inactive = no such curve, though single readings can be large or run the other way; note: potency is the fitted concentration of half-maximal effect; the source files actives as falling curves though it sought activators and does not explain the sign; nearly all actives have a fitted effect of over 65% in size; many hits overshoot -100%
Target sequence (P80244 whole entry, looked up): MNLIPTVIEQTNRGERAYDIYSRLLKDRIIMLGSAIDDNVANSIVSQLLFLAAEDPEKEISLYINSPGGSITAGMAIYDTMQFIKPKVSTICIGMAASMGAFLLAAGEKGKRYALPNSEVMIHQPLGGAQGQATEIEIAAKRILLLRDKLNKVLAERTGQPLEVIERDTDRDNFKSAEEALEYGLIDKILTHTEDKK
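Purified B. subtilis ClpP, 10 microg/mL final in Tris/HCl pH8 with KCl, BSA, glycerol and Tween-20, cleaved an Abz/nitrotyrosine-quenched decapeptide. Fluorescence (ex 320, em 430) was read at 0 and 20 min at room temperature. Delta was normalized to 5.8 microM ADEP and DMSO/no-enzyme controls.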
TRPV1 PAM – enhances activation of the human vanilloid receptor TRPV1 | actives 0.02% (n = 320,000) | Q8NER1 | TRPV1-expressing cells, Fluo-8 calcium influx, capsaicin EC20 potentiation; host cell line not named in the record; control for the full effect not named in the record | potentiation, % at 8.33 µM; active means potentiation above 80%; inconclusive means 30% to 80%; inactive means below 30%; note: 0% is about no effect
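Cells expressing TRPV1 were dye-loaded with Fluo-8 and read kinetically: 10 s baseline, 3 min after compound (agonist portion), then 2 min after EC20 capsaicin (allosteric enhancer portion). Calcium-bound dye fluorescence at 480/520 nm.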
Sfp PPTase inh – Sfp phosphopantetheinyl transferase inhibition | Biochemical Sfp PPTase activity, qHTS | actives 3.5% (n = 310,000) | Q9F4F7 | AID 1490 | Potency, µM, for inactives: max response, negative = inhibition, most hits filed as inhibitors; active = well fitted inhibition curve with a large enough effect; inconclusive = small, poorly fitted or top-dose-only effect, or another doubt; inactive = no such curve, though single readings can be large or run the other way;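 note: the enzyme is Sfp with the accession as filed and its product quenches rhodamine fluorescence; potency is the fitted concentration of half-maximal effect; 0% = enzyme reaction without inhibitor and -100% = no enzyme wells; top concentration of the series not given in the record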
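Compounds were incubated with enzyme (final 15 nM) for 15 min at room temperature before substrate addition started the reaction. Fluorescence at 525 nm excitation, 598 nm emission was recorded immediately and after 30 minutes.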
D2 PAM – positive allosteric modulators of human D2 dopamine receptor. potentiation, % (concentration not given with the values). P14416. actives 0.23% (n = 360,000). DiscoveRx D2 beta-arrestin cells, luminescence, 90 min; 100% = 57 uM dopamine signal; active = potentiation of 50% or more; inconclusive = 30% to 50%; inactive = 30% or less;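 note: compound concentration not given in the record; tested on top of an EC20 dose of dopamine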
Target sequence (P14416 whole entry, looked up): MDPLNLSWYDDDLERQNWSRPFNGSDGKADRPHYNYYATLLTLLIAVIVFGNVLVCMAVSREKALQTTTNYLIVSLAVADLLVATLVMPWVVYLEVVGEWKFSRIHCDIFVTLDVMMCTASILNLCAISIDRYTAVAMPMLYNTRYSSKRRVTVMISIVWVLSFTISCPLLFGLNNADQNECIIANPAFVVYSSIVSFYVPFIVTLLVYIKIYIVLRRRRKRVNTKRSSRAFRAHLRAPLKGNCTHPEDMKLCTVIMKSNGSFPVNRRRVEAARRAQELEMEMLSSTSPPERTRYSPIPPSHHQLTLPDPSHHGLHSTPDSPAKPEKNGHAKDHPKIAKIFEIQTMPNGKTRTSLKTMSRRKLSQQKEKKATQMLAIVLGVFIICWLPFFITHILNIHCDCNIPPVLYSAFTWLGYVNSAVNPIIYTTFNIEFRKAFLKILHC
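D2 cells co-treated with compound plus 50 nM dopamine (EC20) for 90 min at 37 deg C to detect potentiation. Beta-arrestin recruitment was read as enzyme-fragment luminescence after 1 h at ambient temperature. Full response was set by 57 uM dopamine.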
gsp antag – antagonists of gsp mutant (McCune-Albright syndrome); AID 624288; gsp-mutant cells, cAMP HTRF, 30 min; control for the full effect not named in the record; actives 0.4% (n = 340,000); Potency, µM (doses to about 76.9 µM), inactives show top-dose activity change, negative = inhibition, actives largely listed as inhibitors; active = falling curve of any shape with a large fitted effect; inconclusive = falling curve, mostly with a smaller effect; inactive = flat or rising curve; cell line not stated here;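 note: intracellular cAMP measured with PDE inhibitor Ro 20-1724 present during compound exposure; potency is the fitted concentration of half-maximal effect; % is set by controls: 0 for no effect and ±100 for the full control effect; nearly all actives have a fitted effect of over 65% in size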
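HTRF cAMP read-out (cAMP-d2 plus anti-cAMP antibody-K in lysis buffer, 30 min RT). Before lysis, cells are exposed to compounds with […] for 30 min at 37C in DPBS containing Ca/Mg, BSA and Tween 20.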
gsp agonist – gsp mutant agonism | AID 624287 | gsp mutant cells, cAMP HTRF, 30 min; control for the full effect not named in the record | Potency, µM (top dose mostly 76.9 µM), for inactives: at the top dose activation (cAMP increase), most hits filed as activators | actives 0.13% (n = 340,000); active = well fitted activation curve with a large enough effect; inconclusive = small, poorly fitted or top-dose-only effect, or another doubt; inactive = no such curve, though single readings can be large or run the other way; cell line not stated here;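 note: phosphodiesterase inhibitor Ro 20-1724 added with compounds to block cAMP breakdown; potency is the fitted concentration of half-maximal effect; nearly all actives have a fitted effect of over 60% in size; about a fifth of the inactives were tested at one dose only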
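Cells stably selected in G418 were plated at 2000/well, grown 16-24 hr, then given compounds in DMSO with the PDE inhibitor […] (300 uM solution added) for 30 min at 37C; cAMP was read by HTRF.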
Active calls of the source: *; ? = inconclusive; . = no result given; [ ] = another dose, or the depositor's remark.

Preview:
SMILES | Menin MLL FP FL | ClpP mod | TRPV1 PAM | Sfp PPTase inh | D2 PAM | gsp antag | gsp agonist
COc1ccc(-c2c(C)n([O-])c3c([n+]2=O)CCCCC3)cc1OC | 1.5 | ? | 11 | 12% | -3 | 3% | -30%[15.4 µM]
O=C(Nc1ccc(F)cc1F)c1cc2ncc(CCCl)cn2n1 | 2.7 | 1.6% | -13 | 15% | 9 | 2% | 21%

Main list, from the first entry:
SMILES | Menin MLL FP FL | ClpP mod | TRPV1 PAM | Sfp PPTase inh | D2 PAM | gsp antag | gsp agonist
COc1ccc(-c2c(C)n([O-])c3c([n+]2=O)CCCCC3)cc1OC | 1.5 | ? | 11 | 12% | -3 | 3% | -30%[15.4 µM]
O=C(Nc1ccc(F)cc1F)c1cc2ncc(CCCl)cn2n1 | 2.7 | 1.6% | -13 | 15% | 9 | 2% | 21%
COc1ccc(S(=O)(=O)N2CCN(C/C=C/c3ccccc3)CC2)cc1NC(C)=O | -0.4 | -0.7% | 23 | -1% | -19 | -2% | ?
COc1ccc(C(C#N)Nc2ccc(C)cc2)cc1 (stereo not given) | 1.1 | 1.2% | 0 | 18% | -4 | 9% | -3%
O=C(NCCn1cc(SCC(=O)N2CCOCC2)c2ccccc21)c1ccccc1 | -0.9 | -1.0% | -7 | -11% | -6 | -2% | 27%
CCOCCCNC(=O)C(NC(=O)Cc1c[nH]c2ccccc12)c1ccc(OC)cc1 (stereo not given) | -0.7 | . | 12 | 12% | -11 | 5% | 20%[15.4 µM]
CCn1cc(-c2csc(N)n2)c(C)n1 | -0.8 | . | 9 | 9% | -3 | 3% | -18%[15.4 µM]
Cc1ccc(OCC(=O)NCCNC(=O)c2ccncc2)cc1 | -0.9 | . | 20 | 8% | -4 | 7% | 11%
CN(CCOc1ccccc1)S(=O)(=O)c1ccc2oc3ccccc3c2c1 | -0.8 | ? | 16 | 4% | -5 | -9% | 1%[15.4 µM]
CN1CCN(P(=O)(c2ccccc2)c2nc3ccccc3s2)CC1 (stereo not given) | 0.2 | -2.3% | 12 | 10% | -21 | 2% | 23%
CC1=C(C(=O)OCc2ccccc2)C(c2ccc([N+](=O)[O-])cc2)NC(=O)N1CCCC(=O)O (stereo not given) | -2.9 | 1.9% | -16 | -13% | -3 | -7% | 22%
COc1cc(/C=C2\NC(=S)N(C)C2=O)ccc1OCc1ccccc1F | -1.8 | 2.8% | 3 | 21% | -13 | 5% | ?
CCOc1ccc(OCc2ccc(C(=O)NCc3ccncc3)o2)cc1 | 4.7 | 0.6% | -15 | 21% | -6 | -13% | -83%[inhibitor]
CSc1cccc(NC(=O)c2[nH]c(C)c(C(C)=O)c2C)c1 | 2.1 | . | -17 | -6% | -15 | -9% | -26%
CN(C)S(=O)(=O)c1ccc(C(=O)Nc2nnc(SCc3cccc4ccccc34)s2)cc1 | 3.9 | ? | 28 | 19% | -18 | ? | 3%
COc1cc(C#N)c(NC(=O)CN2CCN(CCO)CC2)cc1OC | -3.7 | . | 5 | 22% | -1 | 7% | 18%[15.4 µM]
COc1ccc(/C=N/NC(=O)C(C)Sc2ccccn2)cc1[N+](=O)[O-] (stereo not given) | -0.5 | . | 16 | -3% | -5 | 2% | 14%
O=C(CC1CCC1)NC(c1ccccc1)c1ccccc1 | -0.4 | . | 1 | 14% | 3 | -2% | ?
O=C(NCCS(=O)(=O)NCc1ccc2c(c1)OCO2)c1ccccc1 | . | -2.2% | 2 | . | -10 | 6% | -6%
O=[N+]([O-])c1ccc(/C=N/NC(=S)Nc2ccccc2)o1 | -5.3 | -5.4% | 5 | ? | ? | 2% | -11%

3 records drawn at random from those above:
SMILES | Menin MLL FP FL | ClpP mod | TRPV1 PAM | Sfp PPTase inh | D2 PAM | gsp antag | gsp agonist
O=C(CC1CCC1)NC(c1ccccc1)c1ccccc1 | -0.4 | . | 1 | 14% | 3 | -2% | ?
CC1=C(C(=O)OCc2ccccc2)C(c2ccc([N+](=O)[O-])cc2)NC(=O)N1CCCC(=O)O (stereo not given) | -2.9 | 1.9% | -16 | -13% | -3 | -7% | 22%
O=C(NCCS(=O)(=O)NCc1ccc2c(c1)OCO2)c1ccccc1 | . | -2.2% | 2 | . | -10 | 6% | -6%

New compounds follow.
SMILES | Menin MLL FP FL | ClpP mod | TRPV1 PAM | Sfp PPTase inh | D2 PAM | gsp antag | gsp agonist
O=C(NC(Cc1ccccc1)C(=O)O)/C(=C/c1ccc(Cl)cc1)NC(=O)c1ccccc1 (stereo not given) | 2.0 | -4.9% | -7 | 13% | -2 | 11% | ?
CN(C)S(=O)(=O)c1cccc(-c2csc(=Nc3ccccc3)n2CCCN2CCOCC2)c1 | -1.8 | -0.3% | -8 | -2% | -13 | -23% | 36%
NC(N)=Nc1nc(CCN2C(=O)c3ccccc3C2=O)cs1 | 0.5 | 0.1% | . | -6% | -4 | -10% | -13%
Cc1nc(Nc2cccc(O)c2)c2oc3ccccc3c2n1 | 0.5 | -6.7% | -29 | ? | -15 | 4% | -41%[inhibitor]
CC(=O)c1c(C)[nH]c(C(=O)COC(=O)c2cc(S(=O)(=O)N(C)c3ccccc3)ccc2Cl)c1C | 3.3 | -2.5% | 3 | 6% | -25 | -7% | 7%
Cn1c(Cl)cnc1C(O)(c1ccccc1)c1ccccc1 | 2.1 | -1.1% | 5 | 8% | -7 | -2% | 7%
CCOC(=O)c1c(-c2ccccc2)csc1NC(=O)CSc1nnc(C)s1 | 6.2 | -2.4% | -9 | 1% | -25 | ? | -36%
O=C(O)CCC(=O)NNC(=O)c1ccc([N+](=O)[O-])cc1 | 1.6 | 0.4% | -11 | 22% | -14 | 16% | -30%[inhibitor]
CCOC(=O)c1sc2nc(C)nc(N3CCN(S(=O)(=O)c4ccccc4)CC3)c2c1C | . | -0.4% | . | . | -19 | ? | 21%[15.4 µM]
N#Cc1c[nH]n2c(=O)c3c(nc12)CCC3 | 0.2 | . | 5 | -12% | -2 | 6% | 5%

Record cards, as listed above:
Shown for `Cc1nc(Nc2cccc(O)c2)c2oc3ccccc3c2n1` → Menin MLL FP FL = 0.5; ClpP mod = -6.7%; TRPV1 PAM = -29; Sfp PPTase inh = ?; D2 PAM = -15; gsp antag = 4%; gsp agonist = -41%[inhibitor]
Shown for `CCOC(=O)c1sc2nc(C)nc(N3CCN(S(=O)(=O)c4ccccc4)CC3)c2c1C` → Menin MLL FP FL = .; ClpP mod = -0.4%; TRPV1 PAM = .; Sfp PPTase inh = .; D2 PAM = -19; gsp antag = ?; gsp agonist = 21%[15.4 µM]

Next section.
SMILES | Menin MLL FP FL | ClpP mod | TRPV1 PAM | Sfp PPTase inh | D2 PAM | gsp antag | gsp agonist
O=[N+]([O-])c1cc(/C=N/NC(=S)Nc2ccccc2Cl)ccc1Cl | -0.4 | 66% | 2 | 17% | 1 | -19% | 7%[15.4 µM]
O=C(CSc1nnc2ccccn12)NCCN1C(=O)CSC1=O | 4.4 | -25% | -6 | -2% | 4 | 17% | ?
Cc1c(C)n(C(=O)CN2CCC(C(N)=O)CC2)c2ccccc12 | 1.4 | -3.1% | 3 | -5% | -8 | 0% | -2%
O=C(O)Cc1ccc(C(=O)c2ccc(Cl)cc2)s1 | 4.3 | -1.1% | 4 | 21% | -3 | 7% | 10%
O=C(COC(=O)c1ccc(F)c(S(=O)(=O)N2CCOCC2)c1)Nc1ccc(Cl)cn1 | . | -0.5% | . | . | -6 | . | -2%
CC(C)(C)c1cc(C(=O)NNc2ccc(OC(F)(F)F)cc2)n(Cc2ccccc2)n1 | -2.6 | . | -13 | 9% | -16 | -3% | 7%[15.4 µM]
CCN(CC)S(=O)(=O)c1ccc(Nc2ccc(-c3ccc4c(c3)OCCO4)nn2)cc1 | 5.5 | -5.9% | ? | 5% | -7 | 6% | 26%
CCOc1cc(N2CCOCC2)c(OCC)cc1NS(=O)(=O)c1ccc2c(c1)CC(=O)N2 | . | 1.5% | . | . | 13 | . | -79%[inhibitor]
CC1CCN(CC(=O)c2cccs2)CC1 | -4.5 | 0.7% | 5 | 8% | -25 | 5% | 7%[15.4 µM]
COc1cccc(N2CCN(c3ccc4nnc(CCC(=O)Nc5ccc(F)cc5)n4n3)CC2)c1 | . | . | -8 | 11% | -26 | 2% | 1%
O=C(CCN1C(=O)C2CC=C(Cl)CC2C1=O)N1CCCCC1 (stereo not given) | -16 | -1.9% | 0 | 89µM* | -7 | 5% | 2%
Cc1ccc(C)c(NCc2n[nH]c(=S)n2-c2ccccc2)c1 | -0.4 | . | 3 | 22% | -9 | -4% | -1%
CC(C)NCC(O)COCc1ccc(Cl)cc1 (stereo not given) | -0.1 | 0.9% | 25 | 11% | -5 | 3% | -12%
CCN(c1ccccc1)S(=O)(=O)c1ccc(C(=O)Nc2cccc(C)n2)cc1 | . | -1.6% | -7 | . | -4 | -21% | ?
FC(F)Sc1nc(-c2ccccc2)c(-c2ccccc2)n1C(F)F | 3.9 | -2.0% | -3 | 0% | -7 | -1% | -69%[inhibitor]
Cc1cc(C)nc(N2CCN(CC(=O)NCc3ccccc3)CC2)n1 | 1.4 | 0.8% | 7 | 4% | -17 | -10% | -16%
COC(=O)Cc1[nH]n(-c2nc3ccccc3s2)c(=O)c1C(C)=Nc1ccc(C)cc1 | -0.4 | . | -7 | 56µM* | -7 | -9% | ?
CCCCc1ccc(NC(=O)CSc2nc(=O)n(CCN(CC)CC)c3c2CCCC3)cc1 | . | -1.8% | -5 | . | 1 | -5% | 10%
OCCN1CCN(CC(O)COCC2COc3ccccc3O2)CC1 (stereo not given) | 3.6 | . | 3 | 0% | -6 | 9% | 17%
CC(=C/c1ccccc1)/C=N/Nc1nc(N2CCOCC2)nc(N2CCOCC2)n1 | 11 | -2.1% | -11 | 12% | 6 | -18% | -1%
Cc1ccc(C(O)(c2ccccc2)c2ccccc2C(C)N(C)C)c(C)c1 (stereo not given) | 0.7 | -0.3% | -14 | -15% | -15 | 10% | 5%
CCN1CCN(C(c2ccccc2F)c2nnnn2Cc2ccc3c(c2)OCO3)CC1 (stereo not given) | -0.2 | -2.7% | 13 | 5% | -31 | 21% | -18%
